miR-21 reporter: miR-21 reporter, rising signal; HeLa miR-21 FLuc reporter, luciferase, 48 h; Potency, µM (doses to about 38.3 µM), for the others: at the highest dose reporter change, positive = more light; 340,000 tested, under 10 active; active = well fitted rising curve with a large enough effect; inconclusive = small, poorly fitted or top-dose-only effect; inactive = no such curve, though single readings can be large or run the other way;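 further: % of control where 0% means no effect; miR-21 action dims this reporter so a rising signal means less miR-21 action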
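Using DMEM plus 10% FBS, HeLa miR-21-FLuc cells are incubated with test compounds (final up to about 40uM) for 48 hours; firefly luciferase signal is then imaged following reagent-mediated lysis.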
Rango-impB inh: inhibitors of Rango-importin beta complex formation. Q14974. Rango CFP/YFP FRET sensor + importin beta, 45 min. Potency, µM (highest dose often 92.2 µM), without a hit: at the top dose inhibition of complex formation. 340,000 compounds, 0.031% hits. AID 540263; active = rising FRET ratio curve, often small or poorly fitted; inconclusive = mostly compound fluorescence or quenching in the first reads; inactive = flat curves in all reads;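 further: potency means the concentration at half of the fitted maximal effect; 0% = DMSO wells and 100% = buffer wells lacking importin beta; nearly all actives have a fitted effect of over 15% in size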
Target sequence (Q14974 whole entry, looked up): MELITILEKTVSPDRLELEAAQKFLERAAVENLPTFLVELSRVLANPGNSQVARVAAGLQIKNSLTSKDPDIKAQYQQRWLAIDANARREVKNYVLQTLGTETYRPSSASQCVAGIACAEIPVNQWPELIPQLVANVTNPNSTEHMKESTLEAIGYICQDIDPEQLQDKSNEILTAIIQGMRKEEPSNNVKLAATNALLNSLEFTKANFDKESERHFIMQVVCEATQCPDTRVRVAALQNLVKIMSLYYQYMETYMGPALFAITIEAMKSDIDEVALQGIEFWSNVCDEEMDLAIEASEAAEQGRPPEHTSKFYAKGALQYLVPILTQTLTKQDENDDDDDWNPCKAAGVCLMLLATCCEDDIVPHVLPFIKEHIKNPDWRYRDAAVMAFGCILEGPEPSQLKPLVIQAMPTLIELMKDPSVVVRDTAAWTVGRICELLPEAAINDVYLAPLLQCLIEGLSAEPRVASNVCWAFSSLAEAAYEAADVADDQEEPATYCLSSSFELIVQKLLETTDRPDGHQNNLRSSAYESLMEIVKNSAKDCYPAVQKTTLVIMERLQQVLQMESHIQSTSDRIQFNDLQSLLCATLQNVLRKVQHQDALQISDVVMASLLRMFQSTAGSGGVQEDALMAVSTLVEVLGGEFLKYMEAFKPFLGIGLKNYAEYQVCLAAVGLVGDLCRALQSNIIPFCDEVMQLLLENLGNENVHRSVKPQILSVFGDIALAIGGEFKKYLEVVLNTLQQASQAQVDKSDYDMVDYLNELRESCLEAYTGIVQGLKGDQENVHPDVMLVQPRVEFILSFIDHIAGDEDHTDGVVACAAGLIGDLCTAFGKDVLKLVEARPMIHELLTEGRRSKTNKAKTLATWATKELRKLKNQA
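FRET biosensor Rango (snurportin 1 IBB between N-terminal EYFP and C-terminal Cerulean), 50 nM in PBS/1 mM DTT/0.02% Tween-20/0.1% BSA, preincubated 5 min RT with compound; 0.125 microM importin beta added, 45 min RT, CFP/YFP FRET ratio read.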
Rango release inh: prevents RanGTP from dissociating the Rango-importin beta complex; O95149+P62826; Biochemical FRET Rango-importin beta, RanGTP-induced dissociation; Potency, µM (highest dose often 46.1 µM), for the others: top-dose activity change, negative = inhibition; 340,000 compounds, 0.071% hits; AID 540253; active means falling FRET ratio curve, often poorly fitted, with flat reads before Ran was added; inconclusive means other falling curves, or compound fluorescence or quenching; inactive means flat or rising ratio curve;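 further: potency means the concentration at half of the fitted maximal effect; % of control where 0% means no effect; nearly all actives have a fitted effect of over 45% in size; -100% = wells without RanGTP and RCC1; the record marks most hits as doubtful in a second field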
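FRET read at 45 min, room temperature: inhibitors block the CFP/YFP signal rise when RanGTP (0.6 uM Ran, 2 mM GTP, 0.2 uM RCC1) frees Rango (0.1 uM) from importin beta (0.25 uM). Pre-read after 5 min compound exposure flags interference.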
GLA inh pH 4.5: blocks human alpha-galactosidase A at pH 4.5; purified enzyme, 4-MU-alpha-Gal fluorescence, pH 4.5; activity change, negative = inhibition, % at 105 µM; 230,000 tested, under 10 active; AID 1467; inconclusive = small, poorly fitted or top-dose-only inhibition, or a rising curve; inactive = flat fitted curve, though single readings scatter; no compound was filed as active;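 further: 0% = full activity with enzyme and -100% = basal without enzyme; dose as in the result columns while the protocol names 77 µM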
* hit, by the source's call; u = inconclusive; x = not tested or not shown.

Start of the data: the first 2 records as a preview:
miR-21 reporter	Rango-impB inh	Rango release inh	GLA inh pH 4.5	Structure
-15%	1.5%	18%	-2	CCOc1ccc(Cn2ccnc2)cc1[N+](=O)[O-]
-2%	-0.2%	1%	9	CCc1ccc2nc(Nc3ccc(OC)cc3OC)c(C#N)cc2c1

All compounds of this part, repeating the preview:
miR-21 reporter	Rango-impB inh	Rango release inh	GLA inh pH 4.5	Structure
-15%	1.5%	18%	-2	CCOc1ccc(Cn2ccnc2)cc1[N+](=O)[O-]
-2%	-0.2%	1%	9	CCc1ccc2nc(Nc3ccc(OC)cc3OC)c(C#N)cc2c1
x	0.1%	13%	x	CC12CCC(=O)N1C(C(=O)Nc1nc(-c3ccccc3)cs1)CS2 (stereo not drawn)
-2%	4.1%	2%	3	COCc1[nH][nH]c(=O)c1C=Nc1ccc(C(F)(F)F)cc1
-4%	3.4%	0%	2	CN(C)C(=O)Nc1ccccc1CC[N+](=O)[O-]
-8%	3.5%	-7%	5	CC(C)C(NC(=O)CNC(=O)OC(C)(C)C)C(=O)NCc1ccccc1 (stereo not drawn)
1%	2.4%	-8%	2	Cc1csc(NC(=O)C2CCCN(S(=O)(=O)c3cnc[nH]3)C2)n1 (stereo not drawn)
-8%	1.0%	15%	-9	CCCCN(C(=O)CSc1nnc(-c2ccc(OC)cc2)n1CC)c1c(N)n(Cc2ccccc2)c(=O)[nH]c1=O
12%	3.9%	-13%	x	CC(=O)Nc1ccc(S(=O)(=O)N(Cc2cccnc2)Cc2cc3ccccc3[nH]c2=O)cc1
-1%	2.8%	-5%	x	COc1ccc(NC(=S)N2CCC(NC(=O)c3ccco3)CC2)cc1
-1%	-0.2%	4%	x	Cc1nc(Cl)c(N=Cc2cccc([N+](=O)[O-])c2)c(Cl)n1
x	-0.1%	8%	x	O=C(COC(=O)c1cc(S(=O)(=O)N2CCOCC2)ccc1F)Nc1cc([N+](=O)[O-])ccc1F
x	-1.0%	2%	x	Cc1cccc(NC(=O)CSCC(=O)N2CCN(C(=O)c3ccco3)CC2)c1
-4%	1.5%	-1%	0	COc1ccc(C2/C(=C(\O)c3ccc4c(c3)OCCO4)C(=O)C(=O)N2Cc2ccco2)c(OC)c1 (stereo not drawn)
7%	-1.2%	-8%	1	N#CC1=C(N)NC(=S)C(C(N)=O)C1c1ccc([N+](=O)[O-])cc1 (stereo not drawn)
0%	0.8%	6%	2	CC(c1ccccc1)N1C(=O)C2C3C=CC(C4CC34)C2C1=O (stereo not drawn)
-49%	u	5%	-5	COc1ccc(C/C(C)=N\NC(=O)c2c[nH]c3ccccc23)cc1OC
-24%	-0.3%	5%	x	COc1ccc(C(=O)Nc2nnc(-c3ccccc3)s2)cc1
-9%	0.1%	-7%	2	Cc1ccc(C(=O)N/C(=C/c2ccco2)C(=O)OCN2C(=O)c3ccccc3C2=O)cc1
14%	0.9%	-12%	-8	CCn1c(SCC(=O)N/N=C/c2ccc(C)s2)nc2ccccc21
-6%	-3.6%	-11%	3	O=C(Nc1ccc(F)cc1)C(NC1CCCCC1)c1ccccc1 (stereo not drawn)
-3%	u	u	4	CC(C)(C)C(=O)Nc1cccc(-c2nc3ccccc3c(=O)o2)c1
1%	-2.1%	-3%	7	Cn1c(SCC(=O)N2CCOCC2)nnc1-c1cccc(NC(=O)c2ccccc2)c1
-7%	0.1%	-1%	-3	CC1(C)CC(NC(=O)N2c3ccccc3Sc3ccccc32)CC(C)(C)N1
-17%	-1.0%	-16%	14	C[C@]12CC[C@@H]3c4ccc(O)cc4C(=O)C[C@H]3[C@@H]1CC[C@@H]2O

miR-21 reporter	Rango-impB inh	Rango release inh	GLA inh pH 4.5	Structure
-8%	-0.8%	14%	-10	CCNC(=S)N(Cc1ccco1)Cc1cc2cc3c(cc2[nH]c1=O)OCCO3
-15%	0.6%	-13%	-5	O=C(Nc1nccs1)c1ccc2c(=O)n3c(nc2c1)CCCCC3
-7%	-4.1%	1%	x	CCCCOc1cccc(C(=O)Nc2ccc(NC(=O)c3cccs3)cc2)c1
0%	-2.3%	-9%	2	CCc1nnc(NC(=O)CSc2nnc(Cc3ccc(OC)cc3)o2)s1
x	7.4%	15%	x	CNC(=O)c1[nH]cnc1C(=O)Nc1cccc(C)c1
-2%	-0.2%	-4%	-16	CCCNNC(=O)C(O)(c1ccccc1)c1ccccc1
0%	-0.3%	-7%	4	Cc1cc(C)cc(NC(=O)COC(=O)CN=C2NS(=O)(=O)c3ccccc32)c1
u	-1.1%	1%	-5	CCOc1ccc(-n2c(-c3ccccc3)c[n+]3c2CCC3)cc1
-58%	-1.9%	13%	13	Cc1ccc(-c2nc3ccccc3s2)cc1NC(=S)NC(=O)c1ccccc1
-2%	-1.6%	-4%	x	CCn1c(CC(=O)Nc2ccccc2F)nnc1SCC(=O)NC1CCCCC1
-12%	-0.8%	5%	-5	Cc1ccc(Cn2cc(S(=O)(=O)c3ccc(C(C)C)cc3)c(=O)c3cc4c(cc32)OCO4)cc1
-1%	u	-1%	-3	NC(=O)CCN1CCN(Cc2nc(C(c3ccccc3)c3ccccc3)no2)CC1
-22%	1.7%	13%	2	Clc1cc(Br)ccc1OCCCn1ccnc1
-9%	-3.7%	0%	-9	NNc1nc(NCc2ccccc2)nc(N2CCOCC2)n1
x	-0.1%	20%	x	NCCCC[C@H]1CN=C(N)N1CCCCC1CCCCC1
0%	0.3%	0%	0	CN1CCN(C(=O)/C(=C\c2ccccc2)c2ccccc2)CC1
x	-0.3%	12%	x	Cc1ccc(S(=O)(=O)Nc2ccc3c(c2)CC(=O)N([C@H](C)CO)C[C@@H](C)[C@H](CN(C)S(=O)(=O)c2ccccc2)O3)cc1
5%	2.0%	-10%	x	COc1cccc(N2CCN(c3ccc4nnc(CCC(=O)Nc5ncccc5C)n4n3)CC2)c1
x	-13%	-8%	x	O=C1OCc2ccc([N+](=O)[O-])cc21
1%	-0.8%	-2%	6	CC(C)COC(=O)Cc1c(O)c2ccccc2[nH]c1=O
-28%	0.1%	6%	6	C=CCOc1ccc(-c2n[nH]c(=S)o2)cc1
-33%	0.0%	0%	2	Cc1ccccc1OCCOc1cccc(/C=N/NC(=O)Cc2nnc(N)s2)c1
-42%	-0.8%	1%	4	O=C(/C=C/N1CCOCC1)c1coc2ccccc12
-2%	-0.2%	-11%	-3	CCOc1ccc(S(=O)(=O)Nc2cc(C)ccn2)c2ccccc12
-52%	1.7%	32%	-5	O=C(Nc1cccc(C(=O)O)c1)Nc1ccccc1Cl

Given tab-delimited: entries from further up
Compound	miR-21 reporter	Rango-impB inh	Rango release inh	GLA inh pH 4.5
COc1cccc(N2CCN(c3ccc4nnc(CCC(=O)Nc5ncccc5C)n4n3)CC2)c1	5%	2.0%	-10%	x
O=C1OCc2ccc([N+](=O)[O-])cc21	x	-13%	-8%	x
CC(C)COC(=O)Cc1c(O)c2ccccc2[nH]c1=O	1%	-0.8%	-2%	6
C=CCOc1ccc(-c2n[nH]c(=S)o2)cc1	-28%	0.1%	6%	6

Further compounds follow:
miR-21 reporter	Rango-impB inh	Rango release inh	GLA inh pH 4.5	Structure
-6%	-0.4%	-5%	2	O=C(Nc1ccc([N+](=O)[O-])cc1)C(Cc1ccccc1)N1C(=O)c2cccc3cccc(c23)C1=O (stereo not drawn)
-25%	1.1%	-7%	1	CCc1c(C)sc(NC(=O)c2cc(C)on2)c1C#N
-4%	4.4%	-1%	x	CCOP(=O)(OCC)c1nc(-c2ccccc2)oc1N1CCCCC1
-26%	0.4%	-8%	-2	c1ccc(-c2cc3c(-n4cccc4)ncnc3o2)cc1
x	-0.6%	-4%	x	CC(=O)Nc1ccc(S(=O)(=O)N(C)CC(=O)OCC(=O)c2ccc3c(c2)NC(=O)CO3)cc1
3%	-0.2%	11%	x	O=C(CN(Cc1ccccc1)S(=O)(=O)c1ccc(Br)cc1)NCC1CCCO1 (stereo not drawn)
x	-2.0%	-1%	x	O=C(COC(=O)c1cccc(Cl)c1)NCc1ccccc1
0%	-3.6%	-20%	x	COc1cccc(CNS(=O)(=O)c2ccc3c(c2)C(C)(C)C(=O)N3C)c1
-4%	0.9%	19%	-21	CC(C)(C)c1ccc(OCC(O)CN(CCO)CC(O)Cn2ccc3ccccc32)cc1 (stereo not drawn)
-9%	-2.1%	1%	-12	COc1ccc(C2CC(c3ccccc3)=NN2C(=O)COC(=O)c2cc(S(=O)(=O)N3CCOCC3)ccc2F)cc1 (stereo not drawn)
-2%	-1.3%	1%	-4	O=C(COc1ccccc1)Nn1c(-c2ccccc2)nc2ccccc2c1=O
x	-0.7%	4%	x	O=C(COC(=O)c1c[nH]c2ccccc12)NC1CCCCC1
-6%	1.4%	-8%	-6	CCn1c(=O)c([N+](=O)[O-])c(NCCCn2ccnc2)c2ccccc21
-13%	-3.0%	-9%	1	Cc1ccc(CNS(=O)(=O)c2ccc3c(c2)OCCO3)cc1
-8%	4.6%	-1%	3	Cc1ccc(NC(=O)c2ccco2)cc1NC(=O)CSc1nnc(-c2cccs2)n1C
-11%	0.1%	3%	x	O=C(N/N=C/c1ccccn1)c1cc(Br)ccc1O
-1%	1.6%	-6%	x	CCc1ccccc1NC(=O)c1ccc(S(=O)(=O)N2CCCC2)cc1
0%	3.6%	1%	3	Cc1ccc(NC(=O)c2cc3c(s2)CCC3)cc1S(=O)(=O)N1CCOCC1
0%	-3.1%	-17%	3	CCN(CC)c1ccc(/C=N/n2c(C)cc(C)cc2=O)cc1
x	-0.3%	-3%	x	Cc1ccc(S(=O)(=O)N2CCN(C(=O)COC(=O)c3ccc(Cl)nc3)CC2)c(C)c1
-17%	u	-14%	0	O=C1C(Cl)=C(NCCCN2CCOCC2)C(=O)N1CCc1ccccc1
x	u	u	x	CCCCCn1c(=NC(=O)c2cccnc2)c(C#N)cc2c(=O)n3cccc(C)c3nc21
-24%	0.3%	-11%	-2	CC1=NN(C(=O)c2csc(C)c2C)C(O)(C(F)(F)F)C1 (stereo not drawn)
6%	-3.1%	-2%	x	CCOC(=O)C1CCN(S(=O)(=O)c2ccc3c(c2)CCN3C(C)=O)CC1
12%	-0.9%	-2%	x	NC(=O)CSc1nc(-c2ccccc2)nc2ccccc12

miR-21 reporter	Rango-impB inh	Rango release inh	GLA inh pH 4.5	Structure
x	0.0%	14%	x	CC(=O)Nc1ccc2c(c1)Cc1c-2cc(Br)c(N)c1Br
-2%	-1.6%	11%	x	O=C1CN(C(=O)c2ccc(F)cc2)c2ccccc2N1
-3%	3.2%	1%	-3	Cc1ccc(S(=O)(=O)Nc2ccc(N3CCOCC3)cc2)cc1
6%	-3.7%	1%	x	COc1ccc(CN2CCN(Cc3c[nH]c4ccccc34)CC2CCO)cc1C (stereo not drawn)
x	-3.1%	-14%	-14	Oc1ccc(C2CNCc3sccc32)cc1O (stereo not drawn)
12%	2.2%	0%	3	Cc1cccc(NC(=O)COc2cccc3c2CCN(C)C3=O)c1C
-44%	-1.3%	5%	2	CCc1ccc(Nc2ncc3c(n2)CC(C)CC3=O)cc1 (stereo not drawn)
-23%	1.5%	5%	0	c1ccc(-c2cnnc(SCc3cn4cccnc4n3)n2)cc1
-4%	x	x	0	c1cncc(CSc2nnc(-c3cccnc3)n2Cc2ccco2)c1
x	-3.1%	2%	x	CC1(c2nnc(Cc3ccccc3)o2)CC(c2cccnc2)=NO1 (stereo not drawn)
x	-1.6%	-5%	x	C#CCOCCOCCOCCNc1nc(N2CCN(C(=O)[C@H]([C@@H](C)CC)n3cc(CCCCN)nn3)CC2)nc(N2CCN(C(=O)[C@H](C)n3cc(CCCN=C(N)N)nn3)CC2)n1
-9%	-1.1%	2%	4	CCCCOC(=O)N1CCOCCOCCN(C(=O)OCCCC)CCOCCOCC1
-10%	-1.5%	-13%	-5	CO/N=C/c1ccc(Sc2ccccc2N)c([N+](=O)[O-])c1
-5%	-1.1%	12%	3	O=[N+]([O-])c1cccc(-c2nnc(C34CC5CC(CC(C5)C3)C4)o2)c1
-2%	-4.3%	24%	x	Cc1cccc(OCC(=O)NCCNC(=O)c2ccncc2)c1
-3%	-0.8%	1%	x	CC(C)(C)C1=CC(O)(c2ccccc2)C=C(C(C)(C)C)C1=O
x	1.7%	18%	x	CC1CCC2(CC1)NC(=O)N(NC(=O)c1ccc(OC(C)C)cc1)C2=O (stereo not drawn)
x	1.5%	-1%	x	C[C@H](NC(=O)c1cccc([N+](=O)[O-])c1)C(=O)OCC(=O)c1ccccc1Br

Compound activity as filed in PubChem.

Some of the compounds tested. The share of hits here may be higher or lower than overall.
